From PubChem BioAssay
GALR2 ag – agonists of human galanin receptor 2 (GALR2); activation, %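 (tested at 5 µM)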; 140,000 tested, 0.48% active; GALR2-expressing cells, agonist activation read-out;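 active means above mean plus 3 SD of all compounds, about 5% in these data, not always enough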;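 further: 0% = vehicle buffer wells and 100% = reference agonist at full effect; tested in CHO reporter cells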
Target sequence (O43603 whole entry, looked up): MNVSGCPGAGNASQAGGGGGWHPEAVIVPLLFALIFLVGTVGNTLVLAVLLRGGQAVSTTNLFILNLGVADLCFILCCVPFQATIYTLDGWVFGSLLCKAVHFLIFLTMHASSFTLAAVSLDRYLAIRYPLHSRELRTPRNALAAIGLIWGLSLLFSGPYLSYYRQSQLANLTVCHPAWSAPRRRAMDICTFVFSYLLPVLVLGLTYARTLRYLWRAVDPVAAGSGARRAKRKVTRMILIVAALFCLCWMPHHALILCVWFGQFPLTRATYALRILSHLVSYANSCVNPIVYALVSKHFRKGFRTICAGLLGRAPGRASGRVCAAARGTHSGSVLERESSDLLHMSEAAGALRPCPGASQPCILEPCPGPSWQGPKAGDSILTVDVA
INS promoter inh – TRM-6 insulin promoter activity inhibition. TRM-6 cells (human fetal islet line), insulin promoter-eGFP reporter, imaging; reporter expression induced with tamoxifen. inhibition, % at 2 µM. 130,000 tested, 0.9% active;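 active means inhibition above the mean plus 3 SD, with well images judged a real hit on visual review, cut at about 60% in these data, passing the limit was not always enough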
RGS16-Gao HTS – RGS16-Galphao interaction regulator (human) | bead-based flow cytometry RGS16-Galphao binding, fluorescence; actives lie on both sides | binding response (% of control), % at 10 µM | 220,000 tested, 0.38% active | AID 1441 | O15492+P09471;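 active means below 25% or above 175%, edge rows of some plates excepted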;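 further: Galphao activated by GDP with aluminum fluoride before binding; 100% = wells without compound and 0% = beads without RGS; some results beyond the cut were filed as inactive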
Target sequence (O15492 whole entry, looked up): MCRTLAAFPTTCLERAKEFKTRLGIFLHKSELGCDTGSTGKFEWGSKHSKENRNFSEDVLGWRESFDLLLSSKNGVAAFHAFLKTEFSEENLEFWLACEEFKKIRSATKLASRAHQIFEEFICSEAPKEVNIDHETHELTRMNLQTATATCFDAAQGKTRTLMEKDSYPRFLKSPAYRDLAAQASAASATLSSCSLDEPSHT
Target sequence (P09471 whole entry, looked up): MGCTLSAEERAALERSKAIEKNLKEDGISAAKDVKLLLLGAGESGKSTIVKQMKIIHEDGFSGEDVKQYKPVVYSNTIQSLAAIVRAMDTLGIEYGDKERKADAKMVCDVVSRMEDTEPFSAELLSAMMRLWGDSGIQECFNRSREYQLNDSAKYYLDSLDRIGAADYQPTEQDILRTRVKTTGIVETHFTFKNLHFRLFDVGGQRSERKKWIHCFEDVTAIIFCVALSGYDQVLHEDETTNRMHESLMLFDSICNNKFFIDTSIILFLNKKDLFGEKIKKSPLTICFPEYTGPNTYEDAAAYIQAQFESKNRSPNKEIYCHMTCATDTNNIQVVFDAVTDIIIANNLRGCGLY
HSV augment – HSV replication enhancement; HSV replication augmentation in cells, fold increase; maximum fold increase; 220,000 tested, 0.005% active;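 active means peak rise of 1.5-fold or more in the series; tested in PC3 cells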;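 further: first round at 10 µM; read as green reporter fluorescence; hits show the peak of a series up to 25 µM; 1 = signal of infected wells without compound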
PKD1 inh – inhibitors of human PKD1 kinase; PKD1 kinase fluorescence polarization assay; inhibition, %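 (about 10 µM by stock and volumes)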; 200,000 tested, 0.056% active;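 active means inhibition of 50% or more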;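 further: controls were vehicle for no effect and a reference inhibitor for full effect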
INS promoter inh cell count – second read-out of INS promoter inh, no call of its own (marks repeat the call); normalized cell count, %; measured here: cell count, toxicity; reference of the scale not given here;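 cells exposed to compound for 48 h; stained nuclei by imaging scaled within each plate; lower means fewer cells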
HSV augment primary fold – further read-out of HSV augment, marked with its call; fold increase; compound at 10 µM; measured here: primary screen fold increase 10 uM; tested in PC3 cells;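 GFP signal in the first replicate; 1 = infected wells without compound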
Numbers without * were called inactive; i = inactive; nt = not tested or not shown.

Structure	GALR2 ag	INS promoter inh	INS promoter inh cell count	RGS16-Gao HTS	HSV augment	HSV augment primary fold	PKD1 inh
CCOc1ccc(N(CC(=O)NC2CCCCCC2)S(=O)(=O)c2c(C)noc2C)cc1	-4.5	nt	nt	104	i	1.1	-6
NC(=O)N(CCC(=O)O)c1ccccc1	-0.8	-8	110	86	nt	nt	8
COc1cccc(-c2nn(-c3ccccc3)cc2CN2CCCO2)c1	nt	26	78	63	i	0.9	-4
Cc1ccccc1-c1cccc([C@@H]2C[C@H]3CN(Cc4cccnc4)C(=O)[C@]34CCCN24)c1	nt	nt	nt	109	i	1.1	-4
CCc1ccc(Nc2nnc(SCC(=O)Nc3cccnc3Cl)s2)cc1	0.1	nt	nt	101	i	0.96	-1
N#Cc1nc(-c2ccc(F)cc2)oc1NCCCn1ccnc1	nt	nt	nt	98	i	0.95	5
CCN(Cc1ccccc1)S(=O)(=O)c1nc2nc(C)c(C)c(C)n2n1	-1.6	-41	72	123	i	0.94	-11
O=C(Cn1cc(C(=O)c2cccs2)c2ccccc21)NCc1ccc2c(c1)OCO2	-1.7	nt	nt	101	i	0.87	4
CCOc1ccc(/C=N/NC(=O)COc2ccccc2-c2ccccc2)cc1	-1.1	-4	78	105	i	0.48	-11
Cc1cc2c(c(=O)o1)C(Cc1ccccc1)C(C#N)=C(N)O2 (configuration not stated)	-2.5	22	124	86	i	1	-3
CCOC(=O)N1CCN(C(=O)c2cc3c(=O)n(C)c4ccccc4c3n2C)CC1	0.9	nt	nt	95	i	1.4	3
CCOc1ccc(N2C(=O)Nc3ccccc3C2(O)C(=O)NCc2ccc3c(c2)OCO3)cc1 (configuration not stated)	0.0	-11	63	97	i	1	0
COc1ccc(NC(=O)c2c(-c3ccccc3Cl)noc2C)c(OC)c1	-0.1	-11	143	101	i	0.85	4
O=C(Nc1ccccc1)Nc1nnc(SCc2ccc(Cl)cc2)s1	0.6	nt	nt	101	i	0.91	-8
CCOC1=NS(=O)(=O)c2ccccc21	-0.6	-2	48	4	i	0.97	-6
COc1ccc(C2c3c(ccc4ccccc34)Oc3ncn4nc(-c5ccco5)nc4c32)cc1OC (configuration not stated)	-0.8	nt	nt	102	i	1.2	-11
Cc1ccc(OCCSc2nnc(NC(=O)c3ccco3)s2)cc1	-1.8	30	128	101	i	1	0
CCn1c(Cn2nnc(-c3ccccc3)n2)nnc1SCc1ccc(Cl)c(Cl)c1	2.0	58	156	101	i	0.98	-4
COc1ccc(C(N)=S)c(OC)c1	-0.8	4	51	140	i	0.98	-3
COC(=O)c1c(-c2ccc(F)cc2)csc1NC(=O)c1ccco1	-0.8	-14	92	102	i	1.1	-7
CC(=O)/C(=N\Nc1ccccc1Cl)Sc1cccc2cccnc12	-1.7	-19	45	99	i	0.98	1
CC(C)NC(=O)NNC(=O)c1nn(-c2ccc(F)cc2)ccc1=O	nt	nt	nt	105	i	1.1	nt
CCN(CC)CCN1c2ccccc2Sc2ccc3ccccc3c21	nt	nt	nt	97	i	0.85	nt
Oc1cc2ccccc2cc1-c1n[nH]c(=S)o1	-0.7	nt	nt	100	i	0.81	-8
COc1ccccc1-c1cc(C(F)(F)F)nc(S(=O)(=O)CCCC(=O)N2CCCCC2C)n1 (configuration not stated)	2.7	7	79	100	i	0.47	-1
O=C(NC(=S)Nc1cc(-c2nc3ccccc3[nH]2)ccc1Cl)c1ccc2c(c1)OCO2	0.6	nt	nt	97	i	0.76	-4
Cc1ccc(-c2csc3ncnc(Cl)c23)cc1	0.1	-28	78	103	i	1	-2
Cc1nc2oc3ccc(F)cc3c(=O)c2cc1C(=O)NC(C)(C)C	nt	nt	nt	100	i	1	-9
O=C(NC1CCSC1=O)C1CCCCC1 (configuration not stated)	nt	nt	nt	103	i	0.81	-10
CC(/C=C/c1ccc2c(c1)OCO2)=N\NC(=O)c1cccc([N+](=O)[O-])c1	-0.6	nt	nt	101	i	0.65	-1
O=C(O)C1CCC(=O)N(C2CCCCC2)C1c1ccccc1 (configuration not stated)	-2.8	12	46	160	i	0.79	3
CCOc1ccc(S(=O)(=O)N(C)c2ccc(OCC(=O)NC3=NCCS3)cc2)cc1	nt	0	132	104	i	0.94	6
COCCn1c(SCC(=O)N2CCCCC2)nc2ccccc2c1=O	-2.6	nt	nt	98	i	0.9	3
CC1CCN(S(=O)(=O)c2cc(Cl)ccc2Br)CC1	-1.9	31	148	107	i	1	4
C/C(=N/NC(=O)c1ccc2nc[nH]c2c1)c1cccs1	-1.6	nt	nt	106	i	1.1	-7
O=C(CCN1C(=O)c2ccccc2C1=O)CN1CCOCC1	nt	nt	nt	99	i	1	-4
CCOC(=O)C1=C(C)Nc2ncnn2C1c1ccc2c(c1)OCO2 (configuration not stated)	-0.4	-381	114	103	i	0.8	-5
Cc1cc(NC(=O)c2cc([N+](=O)[O-])cc([N+](=O)[O-])c2)no1	nt	nt	nt	110	i	1	nt
COc1cc2c(=O)n(Cc3ccccc3)c(=O)n(CC(=O)NCC3CCCO3)c2cc1OC (configuration not stated)	-0.3	-19	98	87	i	0.79	-14
CCCCn1nnc(NC(=O)CC23CC4CC(CC(C4)C2)C3)n1	0.3	-58	72	95	i	0.93	-10
COc1ccc(C(C#N)N2CCC(c3ccccc3)=N2)cc1OC (configuration not stated)	nt	nt	nt	102	i	1.1	-2
Clc1ccc(CSc2nnc([C@@H]3CCCN3)o2)cc1	-1.3	36	177	95	i	0.9	-1
O=C(O)CCC(=O)Nc1ccccc1C(=O)Nc1ccccc1	-0.5	19	114	102	i	0.87	1
O=C(CC1Sc2ccccc2NC1=O)OC(C(=O)NCCc1ccccc1)c1cccnc1 (configuration not stated)	-2.7	3	51	84	nt	nt	1
CCCc1cc(C(=O)Nc2cc(OC)c(Cl)cc2OC)no1	-0.8	nt	nt	101	nt	nt	-20
O=C(CSc1nc2ccsc2c(=O)n1Cc1ccccc1)NCc1ccco1	-3.8	nt	nt	99	i	1.1	-12
N#Cc1c(F)cccc1N1CCOCC1	-1.2	27	164	87	i	1	-1
CC(=O)Nc1ccc(S(=O)(=O)N2CCSC2c2ccco2)cc1 (configuration not stated)	nt	nt	nt	99	i	1.3	3
O=C1CC(N2CCOCC2)=NN1c1ccc([N+](=O)[O-])cc1	nt	nt	nt	98	i	0.8	nt
COc1ccc2nc(NC(=O)CCN3C(=O)c4ccccc4C3=O)sc2c1	0.5	-10	64	102	i	1.3	13
CCOc1ccccc1NC1=NCC(=O)N1Cc1ccc(F)cc1	-1.1	nt	nt	63	i	0.84	8
Cc1cc(Nc2ccccc2)nn1C(=O)c1ccc([N+](=O)[O-])cc1	-3.6	-63	142	102	i	1	-3
S=C(NCc1ccccn1)Nc1ccccc1Cl	-0.1	-62	117	96	i	0.97	-9
CC(C)(C)C(=O)Nc1ccc(-c2nc3ccccc3c(=O)o2)cc1	nt	nt	nt	105	i	0.99	-8
O=C(NN1C(=O)c2ccccc2NC1c1ccoc1)c1ccc([N+](=O)[O-])cc1 (configuration not stated)	nt	-7	156	113	i	0.91	8
CCOC(=O)c1c(NC(=S)NC(=O)c2ccc(Cn3cc(Cl)cn3)o2)sc2c1CCCCC2	-0.3	nt	nt	101	i	1	6

The list goes on (six carried over from the part before).
Structure	GALR2 ag	INS promoter inh	INS promoter inh cell count	RGS16-Gao HTS	HSV augment	HSV augment primary fold	PKD1 inh
CCOc1ccccc1NC1=NCC(=O)N1Cc1ccc(F)cc1	-1.1	nt	nt	63	i	0.84	8
Cc1cc(Nc2ccccc2)nn1C(=O)c1ccc([N+](=O)[O-])cc1	-3.6	-63	142	102	i	1	-3
S=C(NCc1ccccn1)Nc1ccccc1Cl	-0.1	-62	117	96	i	0.97	-9
CC(C)(C)C(=O)Nc1ccc(-c2nc3ccccc3c(=O)o2)cc1	nt	nt	nt	105	i	0.99	-8
O=C(NN1C(=O)c2ccccc2NC1c1ccoc1)c1ccc([N+](=O)[O-])cc1 (configuration not stated)	nt	-7	156	113	i	0.91	8
CCOC(=O)c1c(NC(=S)NC(=O)c2ccc(Cn3cc(Cl)cn3)o2)sc2c1CCCCC2	-0.3	nt	nt	101	i	1	6
O=C(Nc1nnc(CCN2CCOCC2)s1)C1CCCCC1	-2.0	nt	nt	100	i	1.1	-5
CCC(=O)n1nc(NCc2ccccc2OC)nc1NCc1ccccc1OC	-2.0	50	150	101	i	0.93	-5
CCN1CCN(c2cc(C)c3cc(NC(=O)c4ccccc4F)ccc3n2)CC1	-1.7	nt	nt	114	i	0.77	-3
CCc1cc(-c2n[nH]c(=S)n2-c2cccc(C)c2)cs1	-1.6	36	96	45	nt	nt	13
CC(=O)c1c(C)[nH]c(C(=O)OCC(=O)c2c(N)n(C)c(=O)n(C)c2=O)c1C	nt	nt	nt	101	i	1	-1
O=C(Nc1ccc(C(F)(F)F)cc1)c1csc(-c2ccncc2)n1	nt	nt	nt	102	i	0.84	-1
CNC(=S)NNC(=O)c1sc2cc(C(F)(F)F)cnc2c1-c1cccnc1	nt	0	129	102	i	0.88	-5
COc1ccc2c(c1)CCc1c(C(=O)NCC(C)C)noc1-2	nt	nt	nt	100	i	0.92	1
COc1ccc(C2CC(c3ccccc3)=NN2c2ccc(S(N)(=O)=O)cc2)cc1 (configuration not stated)	nt	nt	nt	104	i	1.1	0
O=C(NC(=S)N1CCN(C/C=C/c2ccccc2)CC1)c1ccc(F)cc1	nt	nt	nt	97	i	0.82	nt
CCCCC(=O)NS(=O)(=O)c1ccc(N=NN2CCCCC2)cc1	-0.8	17	60	101	i	1.2	-11
CC1(c2ccccc2Cl)NC(=O)N(CC(=O)Nc2ccc3c(c2)OCO3)C1=O (configuration not stated)	nt	-75	127	103	i	0.86	-3
CN1C(=O)N(CN2CCCCC2)C2C1N(C)C(=O)N2CN1CCCCC1 (configuration not stated)	0.4	nt	nt	549	i	0.9	-8
CCN(CC)C(=O)C1CCN(S(=O)(=O)c2cccc3nonc23)CC1	-1.4	3	145	119	i	0.91	-5
CCN(CC)CCNC(=O)c1ccc(Cl)c(S(=O)(=O)Nc2ccc(Cl)cc2)c1	0.0	3	119	106	i	1.1	2
O=C1CC(=O)C(n2cncn2)C(c2cccc(Cl)c2)C1 (configuration not stated)	-3.3	-5	89	104	i	0.96	-13
Cc1nn(C(C)C(=O)O)c(=O)c2c1sc1ccccc12 (configuration not stated)	-1.4	nt	nt	106	i	1	-5
O=S(=O)(Cc1ccc(Cl)cc1)c1ccccc1-c1nnc(-c2ccccc2)o1	-0.2	9	82	74	i	1	6
COc1ccc(NC(=O)c2ccco2)cc1NC(=O)c1c(F)c(F)c(OC)c(F)c1F	-3.6	73	42	97	i	0.89	7
CCOCCCn1c(SCc2nc3sc(C(=O)O)c(C)c3c(=O)[nH]2)nnc1-c1ccc(Cl)cc1	nt	6	124	102	i	1.2	1
Cc1ccc(SCc2ccc(C(=O)Nc3cccc([N+](=O)[O-])c3C)cc2)cc1	-0.7	nt	nt	106	i	0.84	5
CCOc1cc(NC(=S)NCc2ccco2)c(OCC)cc1NC(=O)c1ccco1	nt	nt	nt	123	i	0.94	-9

An unsorted share of the library. About 1.3% of those tested had a hit in this group.
